Bead autofluor = flagged as autofluorescent in microsphere protease counterscreen; fluorescence intensity (test concentration not listed); compound autofluorescence counterscreen, microsphere flow cytometry; stronger effect = higher value; actives 3.1% (n = 360,000);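 active = at least 3 SD above the mean of all compounds, about 16000 in these data; inconclusive = too few beads counted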;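 also: 100 nL of 1 mM stock went into each well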
ugtP null kill = compounds lethal to S. aureus RN4220 ugtP deletion mutant | OD600 growth, 16 h; some inactives read as strong as hits | growth inhibition, % (test concentration not listed) | actives 0.54% (n = 330,000) | AID 1259309;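 active = z-score under -3 and OD600 up to 0.15 on both plates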;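 also: plate controls were untreated wells for no effect and antibiotic for full effect; wells of about 80 µL received 100 nL stock; the first replicate is given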
Mtb hypoxia inh = reduces hypoxia-regulated biosensor signal in M. tuberculosis | M. tuberculosis hypoxia-regulated fluorescent reporter, fluorescence | fluorescence inhibition, % (no concentration beside the values) | actives 0.1% (n = 300,000);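 active = 35 to 45% if threefold the growth effect, above 45% if 1.5-fold the growth effect; inactive = the rest, general growth blockers included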;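 also: wells of about 50 µL received 100 nL stock; 0% = vehicle wells and 100% = reference inhibitor wells; whole bacteria with a GFP reporter of the hypoxia response; strong numbers were not always called active; many hits fall short of the cut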
PrP 5UTR inh = suppresses PrP 5' UTR mRNA reporter expression; inhibition, % (no concentration beside the values); actives 0.35% (n = 340,000); cell-based PrP 5' UTR mRNA reporter, plate reader;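 active = every replicate at 50% or more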;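 also: 0 = median of the neutral control wells; tested in H4 reporter cells; numbers are from one replicate; inactives centre near -14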
RN4220 kill = kills Staphylococcus aureus RN4220. S. aureus RN4220 growth, OD600, 16 h. inhibition, % (no concentration beside the values). actives 0.33% (n = 330,000). AID 1259311;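 active = z-score of -3 or lower and OD600 up to 0.18 on both plates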;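 also: plate controls were untreated cells for no effect and reference antibiotic for full effect; stock transfer was 100 nL into about 80 µL; one replicate is shown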
BJeLR lethal = BJeLR cell viability loss; BJeLR (HRASV12) viability, CellTiter-Glo ATP luminescence, 48 h; reference of the scale not given here; inhibition, % (concentration not given with the values); actives 0.17% (n = 300,000); AID 1554;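 active = replicate mean above 50%; inconclusive = above 50% but judged a plate artefact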;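 also: 50 nL library stock added to about 25 µL; numbers are from one replicate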
Mtb hypoxia inh growth = further read-out of Mtb hypoxia inh, marked with its call; growth inhibition, %; measured here: M. tuberculosis growth (absorbance);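 0% = vehicle and 100% = reference antibiotic; read after six days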
* = called active by the depositor; ? = inconclusive; / = not tested or not shown; & = joins results of further samples. Outcome played no part in choosing rows. About 4% of those tested had a hit in this group.

molecule	Bead autofluor	ugtP null kill	Mtb hypoxia inh	Mtb hypoxia inh growth	PrP 5UTR inh	RN4220 kill	BJeLR lethal
COc1ccc(-c2nc(CS(=O)(=O)CC(=O)NCc3ccc4c(c3)OCO4)c(C)o2)cc1	3981	-4	0	-6	3	-3.9	-1
CCOC(=O)c1ccc(S(=O)(=O)NCC(c2ccc(N(C)C)cc2)c2c[nH]c3ccccc23)cc1 (centres undefined)	8341	-21	19	-2	5	12	6
O=C(NCCCc1ccc(F)cc1)C1CCC(=O)N(CCCN2CCCC2=O)C1 (centres undefined)	5366	3	0	-4	-5	4.6	7
CCOc1ccccc1N1CC(O)=C(c2nc3ccccc3s2)C1=N	8778	-12	-10	7	-28	-6.2	2
Cc1cc(C)n(Cc2ccc(Cl)nc2)n1	6599	2	4	7	1	3.9	4
O=c1[nH]sc2ccccc12	4253	11	-1	5	-20	-1.8	-11
CC(CC(=O)NCc1ccc(Cl)cc1)=NNC(=O)COc1ccc(C)cc1Br	/	-1	-4	-8	/	7.2	/
CC(=O)Nc1ccc(S(=O)(=O)n2cnc3ccccc32)cc1	4117	-5	-1	4	8	-3.4	10
CCCCNC(=O)c1ccc2c(c1)N(C)C(=O)c1ccccc1S2	3478	5	13	9	-20	2.3	-3
Cc1ccc(C)c(OCCC(=O)OCC(=O)NCc2ccccc2)c1	6573	5	13	6	-18	5.6	-3
CCOc1cccc2sc(N(CCN(C)C)C(=O)c3ccc(Br)s3)nc12	4326	-3	1	-1	-17	3.6	3
CC(C)CCN(C(=S)Nc1cccc(C(F)(F)F)c1)C(C)c1ccccn1 (centres undefined)	4217	4	14	11	-15	15	7
Cc1ccc(C(C)C)cc1OCC(=O)Nc1ccc(N2CCCCC2)cc1	?	16	11	6	-23	12	4
COC(=O)c1ccccc1NC(=O)CN1C(=O)NC2(CCCCCCC2)C1=O	3625	-3	-2	3	0	2.0	/
Cc1ccccc1NC(=O)COC(=O)c1cccnc1	4260	7	2	-2	-19	5.5	1
CCOC(=O)c1cc2c(=O)n3ccccc3nc2n(Cc2ccco2)c1=NC(=O)c1ccccc1OCC	4021	-4	-8	1	-15	-8.7	-7
CCOc1ccc(OCC(=O)Nc2ccc(OC)cc2[N+](=O)[O-])cc1	2060	0	3	2	-19	5.7	1
O=C1CCCC(=NNC(=O)c2cc(NS(=O)(=O)c3cccs3)cc(NS(=O)(=O)c3cccs3)c2)C1	/	4	-1	-3	/	3.8	/
O=C(c1ccc(Br)o1)N1CCC(c2nc3ccccc3[nH]2)CC1	6796	-1	-3	5	-20	0.9	0
COc1ccc(-c2nc(SC(CC(=O)NCCN3CCOCC3)c3cccs3)n[nH]2)cc1 (centres undefined)	3313	9	15	10	-7	2.5	-1
Cc1cc(C(C)(C)C)ccc1OCC(=O)N/N=C\c1c(C)n(C)n(-c2ccccc2)c1=O	3984	/	/	/	-9	/	4
CC(O)c1ccc(-n2cnnn2)cc1 (centres undefined)	2114	3	/	/	-24	4.5	-6
COCCn1c(SCC(=O)Nc2cccc(C(=O)OC)c2)nc2ccccc2c1=O	16194*	9	-3	-5	-17	6.6	-3
Cc1coc2c1c(C)cc1oc(=O)c(Cc3ccccc3)c(C)c12	24793*	-9	5	2	-20	5.7	12
Cc1ccc(-n2nc(C(=O)N3CCOCC3)cc2-c2ccc(Cl)cc2)cc1	2735	92*	/	/	-9	-3.4	1
O=C(CCCOc1ccccc1)N1CCN(c2ccccc2)CC1	2558	7	/	/	-31	-0.4	1
CC(=O)NCC(=O)OCC(=O)c1ccccc1	8017	2	8	6	-19	5.5	-4
CCN(CC(=O)NCc1ccc(F)cc1)c1ccc(S(C)(=O)=O)cc1[N+](=O)[O-]	3221	-3	4	2	-3	1.1	19
O=C(CSc1cccs1)Nc1ccc2ccccc2c1	10540	-13	-1	3	-35	-2.3	-2
CCCCn1c(=O)c(C(=O)NCc2ccco2)c(O)c2ccccc21	3396	27	-5	3	5	-4.6	-5
Cc1c(NC(=O)CSc2nnc(C(C)N(C)C)n2-c2ccccc2)c(=O)n(-c2ccccc2)n1C (centres undefined)	3072	3	5	-4	-16	5.8	/
Cc1nc(NNC(=O)c2ccccc2)cc(-c2ccccc2)n1	2756	1	11	2	-25	4.0	-6
O=C(CSc1nnc(Cc2ccccc2)n1Cc1ccccc1)NCc1ccco1	2391	-5	/	/	-10	-6.4	-5
O=C(Nc1cccnc1)c1ccc(COCC(F)(F)F)cc1	11516	11	10	-6	-32	6.5	-3
N#CC1(NC(=O)COC(=O)CSc2ccc(F)cc2)CCCCC1	?	4	6	11	-12	-0.3	-2
C/C(=N\Nc1nc(C)cc(-c2ccccc2)n1)c1ccccc1	3966	/	/	/	-31	/	-9
O=C(CN1CCN(S(=O)(=O)c2ccc(Br)s2)CC1)NC1CCCCC1	?	9	-1	-7	-13	2.0	/
COc1ccc(S(=O)(=O)Nc2ccc(O)c3ccccc23)cc1	8045	-1	5	-3	-20	13	2
Cc1cc(C)c(C)c(OCC(=O)N2CCN(c3ccccn3)CC2)c1	4439	13	5	-3	-11	6.8	0
CCOC(=O)N1CCC(NC(=O)CN(c2ccc(C(C)C)cc2)S(=O)(=O)c2c(C)nn(C)c2C)CC1	5323	3	2	0	-10	1.0	1
CCCN1C2CCCC1CC(NC(=O)c1cccc(Cl)c1)C2 (centres undefined)	4010	0	7	-2	-12	7.2	1
Cc1ccc(C)c(S(=O)(=O)NCc2ccc(C(=O)N3CCN(C)CC3)cc2)c1	16472*	4	1	9	-9	0.5	-2
O=C(Nc1cc(N2CCOCC2)ncn1)NC1(C(F)(F)F)Oc2ccc(Cl)cc2O1 (centres undefined)	/	0	/	/	/	-0.2	3
Cc1ccc2c(c1)c(C)c(C)n2CC(O)Cn1nc(C)cc1C (centres undefined)	3776	1	11	11	6	8.1	0
Cc1cc(C)cc(NC(=O)/C(C#N)=C/c2cn(CC(=O)NCc3ccco3)c3ccccc23)c1	1953	-5	-6	1	7	6.2	8
CC(C)[C@H](NC(=O)c1ccccc1)C(=O)OCC(=O)N1CCc2ccccc2C1	5765	3	-4	2	6	-0.8	-7
O=C(O)c1cc(NC(=O)c2cccc(C(=O)Nc3cc(C(=O)O)cc(C(=O)O)c3)c2)cc(C(=O)O)c1	3468	7	9	7	-96	-0.2	-18
C/C(C=Nn1c(-c2ccccc2)n[nH]c1=S)=C\c1ccco1	/	-2	16	8	/	19	/
Fc1cccc(Cl)c1-c1nnc2ccc(C(F)(F)F)cn12	3528	10	16	9	-11	8.1	8
Cc1ccc(-c2nc3ccccc3c(=O)o2)cc1	2995	-4	10	3	-21	8.5	3
Fc1ccc(-c2ccc(CNCc3ccccn3)o2)cc1Cl	3918	1	2	-3	-24	-0.4	0
Cc1cc(N/N=C/c2ccccc2)nc(NCc2ccccc2)n1	2370	/	/	/	-20	/	1
Cc1ccc(NC(=O)Cc2nc(CCl)cs2)cc1	2756	-1	-11	4	-18	-2.2	-5
CC(NC(=O)CN1CCN(Cc2cccc(F)c2)CC1)c1ccccc1 (centres undefined)	3635	12	17	10	-22	0.1	20
Nc1ccc(S(=O)(=O)N2CCCC2C(=O)O)cc1 (centres undefined)	5844	11	1	-3	-8	1.0	-10
Cc1cc2oc(=O)cc(CN3CCCCC3C)c2cc1C(C)C (centres undefined)	5192	18	10	5	-17	7.4	12
O=S(=O)(/C=C/c1ccccc1)NCCc1ccccn1	3822	-5	-2	3	1	-16	4
CCNc1nc(NCC)n2c(SCC(=O)c3ccccc3Cl)nnc2n1	4348	0	7	1	-22	4.5	-9
C/C(=N\NC(=O)c1ccccc1F)c1ccccn1	5141	/	/	/	9	/	50
CC(C)(C)NC(=O)CSc1nnc(-c2ccccn2)n1-c1ccccc1	6233	-14	/	/	5	2.6	-1

(list continues)
molecule	Bead autofluor	ugtP null kill	Mtb hypoxia inh	Mtb hypoxia inh growth	PrP 5UTR inh	RN4220 kill	BJeLR lethal
COc1cccc(CN(C)CC(=O)NC(=O)NCc2ccccc2)c1	7618	3	1	2	-3	5.8	-16
COc1ccc(CNC(=O)C(c2ccccc2F)N(C(=O)c2csnn2)C2CC2)cc1 (centres undefined)	3895	-1	-8	-7	-22	-2.5	-9
CCOC(=O)/C(C#N)=C1/C=C(C)NC(c2ccccc2O)=N1	10689	83*	14	7	/	81	13
Cc1ccc(Cn2ncc3c(N4CCN(c5ccc(C)cc5)CC4)ncnc32)cc1	3003	9	/	/	-8	-4.7	21
Cc1cccc(C)c1NS(=O)(=O)c1cc2c3c(c1)CC(=O)N3CCC2	5475	-2	1	8	1	6.2	5
CCOc1ncccc1C(=O)Nc1cccc(S(=O)(=O)NC2=NCCC2)c1	/	4	0	2	9	4.3	/
COCC(C)n1c(SCC(=O)N(C)C2CCS(=O)(=O)C2)nc2ccccc2c1=O (centres undefined)	4346	1	0	1	0	7.7	3
CCCCCCCCCCNC(=O)C(=O)Nc1ccccn1	5115	0	/	/	-28	-7.5	-6
COc1ccc(N2C(=O)CC(N3CCN(c4cccc(Cl)c4)CC3)C2=O)cc1 (centres undefined)	/	0	10	5	-19	0.0	-9
COc1ccc(C(CC(=O)O)NC(=O)c2cc3cc(Br)ccc3oc2=O)cc1OC (centres undefined)	3908	-3	8	15	-17	4.6	-4
O=C(O)CSc1nc2c(c(C(F)(F)F)n1)CCCC2	4574&5080	4&-2	6&-7	-1&-18	6&-25	2.3&-2.8	-2&0
COc1ccc(-c2nnc(N(C)C(=O)C3CCCO3)s2)cc1 (centres undefined)	3175	-8	-4	3	-63	8.5	7
CCn1cc(/C=C(\NC(=O)c2ccccc2Cl)C(=O)N2CCN(C)CC2)c2ccccc21	5088	-5	-18	-5	-2	-1.5	1
CS(=O)(=O)N(CC(=O)N1CCOCC1)c1ccc2c(c1)OCO2	3082	-2	18	15	-31	-13	-6
CCCCN1CC(=O)N2C(c3ccc(OC)cc3)C3C(=O)N(CC)C(=O)C3[C@]2(Cc2ccccc2)C1=O (some centres undefined)	/	8	4	6	/	2.8	/
COc1cccc(CNC(=O)Cc2csc(NC(=O)Nc3ccccc3OC)n2)c1	?	4	7	9	-3	4.7	-1
C/C(=N/NC(=O)c1ccc(Cl)cc1Cl)c1cccnc1	3073	/	/	/	-5	/	-1
Cc1ccc(N2CC(C(=O)OCc3nc(N)nc(Nc4ccccc4C)n3)CC2=O)cc1 (centres undefined)	?	1	9	-6	-8	4.7	-9
CN(C)c1oc(-c2ccccc2Cl)nc1S(=O)(=O)c1ccccc1	5319	13	3	4	-10	6.1	4
COc1ccc(NCc2ccc3c(c2)OCO3)cc1Cl	11535	1	-6	-7	-31	0.2	-5
O=C(c1ccc(Cl)cc1)c1oc2ccccc2c1CS(=O)(=O)c1ccccc1	22160*	11	3	8	2	3.7	-13
CC(=O)c1cccc(NC(=O)COC(=O)C2=COCCO2)c1	2745	13	8	4	-23	0.3	-2
CCOC(=O)CSc1nc2cc(C)ccc2cc1C#N	3896	5	-2	6	-122	6.4	3
COc1ccc(CCC(C)N2CCC(CO)(Cc3ccccc3)CC2)cc1 (centres undefined)	4114	/	/	/	-14	/	-4

Rewritten with each value named: part of the list above.
Molecule: Cc1cccc(C)c1NS(=O)(=O)c1cc2c3c(c1)CC(=O)N3CCC2
  Bead autofluor: 5475
  ugtP null kill: -2
  Mtb hypoxia inh: 1
  Mtb hypoxia inh growth: 8
  PrP 5UTR inh: 1
  RN4220 kill: 6.2
  BJeLR lethal: 5

Molecule: CCOc1ncccc1C(=O)Nc1cccc(S(=O)(=O)NC2=NCCC2)c1
  Bead autofluor: /
  ugtP null kill: 4
  Mtb hypoxia inh: 0
  Mtb hypoxia inh growth: 2
  PrP 5UTR inh: 9
  RN4220 kill: 4.3
  BJeLR lethal: /

Molecule: COCC(C)n1c(SCC(=O)N(C)C2CCS(=O)(=O)C2)nc2ccccc2c1=O (centres undefined)
  Bead autofluor: 4346
  ugtP null kill: 1
  Mtb hypoxia inh: 0
  Mtb hypoxia inh growth: 1
  PrP 5UTR inh: 0
  RN4220 kill: 7.7
  BJeLR lethal: 3

Molecule: CCCCCCCCCCNC(=O)C(=O)Nc1ccccn1
  Bead autofluor: 5115
  ugtP null kill: 0
  Mtb hypoxia inh: /
  Mtb hypoxia inh growth: /
  PrP 5UTR inh: -28
  RN4220 kill: -7.5
  BJeLR lethal: -6
